Source: PubChem
MLL AF4-AF9 inh – inhibitors of human MLL-AF4/AF9 interaction. AlphaScreen, biotin-AF4 peptide binding to FLAG-AF9. inhibition, % at 10 µM. hit rate 0.47% among 350,000. AID 651704;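 active means every replicate reaching a set inhibition limit, whatever the replicate mean, cut at about 25% in these data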;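 further: 0% = plate neutral control median and 100% = total signal loss; the record names both 10 and 1 µM as test concentration; the first replicate is given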
Target sequence (P42568 whole entry, looked up): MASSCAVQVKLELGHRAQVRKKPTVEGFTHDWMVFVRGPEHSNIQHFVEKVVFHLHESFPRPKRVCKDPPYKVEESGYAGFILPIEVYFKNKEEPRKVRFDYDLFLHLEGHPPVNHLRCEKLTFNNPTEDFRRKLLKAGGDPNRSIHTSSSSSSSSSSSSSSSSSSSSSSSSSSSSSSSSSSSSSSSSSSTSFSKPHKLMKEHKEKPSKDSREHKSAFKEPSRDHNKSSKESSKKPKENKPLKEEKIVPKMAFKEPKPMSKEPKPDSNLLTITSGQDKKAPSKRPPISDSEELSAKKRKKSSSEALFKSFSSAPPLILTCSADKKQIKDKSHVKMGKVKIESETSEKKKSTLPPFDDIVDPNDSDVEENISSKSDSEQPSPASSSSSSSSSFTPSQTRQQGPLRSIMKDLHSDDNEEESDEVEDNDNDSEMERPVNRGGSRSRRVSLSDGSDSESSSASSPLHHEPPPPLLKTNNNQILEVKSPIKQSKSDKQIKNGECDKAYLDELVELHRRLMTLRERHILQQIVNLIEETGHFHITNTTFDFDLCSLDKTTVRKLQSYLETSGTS
Active calls of the source: *. An excerpt; the hit share may differ from the screen's.

For C[C@@H]1CN([C@H](C)CO)S(=O)(=O)c2ccc(-c3cccnc3)cc2O[C@H]1CN(C)C(=O)CC1CC1 the results were MLL AF4-AF9 inh 2.4.
O=C(C[C@@H]1CC[C@@H](NC(=O)Nc2ccc(C(F)(F)F)cc2)[C@H](CO)O1)NCc1cc(F)cc(F)c1 was read as MLL AF4-AF9 inh -0.1.
Screening CC1OC(C2CCCCC2)Cc2[nH]c(=S)[nH]c(=O)c21 (stereo not given) returned MLL AF4-AF9 inh -0.3.
CC(C)NC(=O)Nc1ccc2c(c1)CC(=O)N([C@H](C)CO)C[C@H](C)[C@@H](CN(C)C(=O)NC(C)C)O2 was read as MLL AF4-AF9 inh -3.4.
For O=C(Nc1ccc(F)cc1)N1CCCCN2[C@@H](CO)[C@H](c3ccc(C#Cc4ccccn4)cc3)[C@@H]2C1 the results were MLL AF4-AF9 inh -1.3.
`O=C(N[C@@H]1CC[C@H](CC(=O)N2CCc3ccccc3C2)O[C@H]1CO)C1CC1` gave MLL AF4-AF9 inh -8.0.
For Cc1cc(C(O)c2ncc(-c3cccc4ccccc34)[nH]2)ccc1F (stereo not given) the results were MLL AF4-AF9 inh 9.4.
CO[C@@H]1CN(C)C(=O)c2ccc(NC(=O)C3CCCCC3)cc2OC[C@@H](C)N(Cc2nccs2)C[C@@H]1C was read as MLL AF4-AF9 inh 0.2.
Screening O=C(NCc1ccccn1)c1[nH]c(C(F)(F)F)nc1-c1ccccc1 returned MLL AF4-AF9 inh 0.9.
For O=C1CCCn2cc(nn2)COC[C@H](Cc2ccccc2)N1 the results were MLL AF4-AF9 inh -13.
Screening CC(C)C#Cc1ccc2c(c1)O[C@@H](CN(C)C(=O)c1ccccc1)[C@@H](C)CN([C@@H](C)CO)S2(=O)=O returned MLL AF4-AF9 inh 3.6.
C[C@@H]1CN([C@@H](C)CO)C(=O)c2cccc(NS(=O)(=O)c3ccccc3)c2O[C@H]1CN(C)C(=O)Nc1ccc(F)cc1 was read as MLL AF4-AF9 inh 0.3.
`C[C@@H]1CN([C@H](C)CO)C(=O)c2cc(NC(=O)C3CC3)ccc2O[C@@H]1CN(C)CC1CCCCC1` gave MLL AF4-AF9 inh 2.9.
CCCCN1C(=O)C(CC(=O)NCCc2ccccn2)CC(C(=O)N2CCCCCC2)=C1C (stereo not given) was read as MLL AF4-AF9 inh 0.6.
`C[C@@H]1CN([C@H](C)CO)C(=O)c2cccc(NC(=O)CCCCCC(=O)Nc3ccccc3N)c2O[C@H]1CN(C)Cc1ccccc1` gave MLL AF4-AF9 inh -0.3.
C[C@H]1CN([C@@H](C)CO)C(=O)c2c(c3ccccc3n2C)-c2ccccc2CO[C@H]1CN(C)C was read as MLL AF4-AF9 inh -2.4.
For C[C@@H]1CN([C@H](C)CO)C(=O)c2cccc(NC(=O)C3CC3)c2O[C@H]1CN(C)Cc1ccncc1 the results were MLL AF4-AF9 inh -7.0.
`O=C(Nc1ccccc1)c1cc(C2CCCN(C(=O)CCc3ccccc3)C2)on1` (stereo not given) gave MLL AF4-AF9 inh -1.8.
C[C@H]1CN([C@@H](C)CO)S(=O)(=O)c2ccc(/C=C/c3ccccc3)cc2O[C@@H]1CN(C)C was read as MLL AF4-AF9 inh 17.
Screening CC1Cc2[nH][nH]c(=O)c2C(C2CC2)O1 (stereo not given) returned MLL AF4-AF9 inh -3.8.
Screening C[C@H]1CN([C@@H](C)CO)C(=O)c2cc(NS(=O)(=O)c3cccs3)ccc2O[C@H]1CN(C)Cc1ccc(Oc2ccccc2)cc1 returned MLL AF4-AF9 inh 4.8.
C[C@@H]1CN([C@@H](C)CO)C(=O)c2cc(-c3cccc(F)c3)cnc2O[C@H]1CN(C)C(=O)C1CCCCC1 was read as MLL AF4-AF9 inh 0.0.
Screening CCOC(=O)c1ccc(S(=O)(=O)N2CCN(C3CC(=O)N(c4ccc(OC)cc4)C3=O)CC2)cc1 (stereo not given) returned MLL AF4-AF9 inh -14.
C[C@@H]1CN([C@@H](C)CO)C(=O)c2cccc(NC(=O)Nc3ccc(F)cc3)c2O[C@@H]1CN(C)CC1CC1 was read as MLL AF4-AF9 inh -2.5.
C[C@H](CO)N1C[C@H](C)[C@H](CN(C)C(=O)NC2CCCCC2)OCCCC[C@H](C)Oc2ccc(NC(=O)Nc3ccccc3)cc2C1=O was read as MLL AF4-AF9 inh 0.4.
`C[C@H](CO)N1C[C@H](C)[C@H](CN(C)S(=O)(=O)c2ccccc2)Oc2ccc(NC(=O)CCC(F)(F)F)cc2CC1=O` gave MLL AF4-AF9 inh -0.6.
Screening C[C@@H]1CN([C@@H](C)CO)C(=O)c2cccc(NS(=O)(=O)c3ccc(F)cc3)c2O[C@@H]1CN(C)S(=O)(=O)c1cn(C)cn1 returned MLL AF4-AF9 inh -0.8.
Screening COc1cccc(C#Cc2ccc([C@@H]3[C@H](CO)N4C(=O)CN(C(=O)Cc5ccccc5)C[C@@H]34)cc2)c1 returned MLL AF4-AF9 inh -4.4.
CN(C[C@H]1[C@H](c2ccccc2)[C@H](CO)N1Cc1ccccn1)S(C)(=O)=O was read as MLL AF4-AF9 inh -3.8.
For Cc1noc(C)c1S(=O)(=O)N(C)C[C@@H]1OCCCC[C@@H](C)Oc2ccc(NC(=O)C3CCCCC3)cc2C(=O)N([C@@H](C)CO)C[C@@H]1C the results were MLL AF4-AF9 inh -0.9.
For CCN1C(=O)[C@@H]2[C@@H]3CN(S(=O)(=O)c4ccc(C)cc4)[C@@H](c4ccccc4Cl)[C@@H]3C(=O)C[C@@H]2C1=O the results were MLL AF4-AF9 inh -2.9.
`CC(C)NC(=O)Nc1ccc2c(c1)CC(=O)N([C@H](C)CO)C[C@H](C)[C@H](CN(C)S(=O)(=O)c1ccc(F)cc1)O2` gave MLL AF4-AF9 inh -2.0.
Screening C[C@@H]1CCCCO[C@H](CN(C)C(=O)Nc2ccc(F)cc2)[C@@H](C)CN([C@H](C)CO)C(=O)c2cc(NS(=O)(=O)c3cn(C)cn3)ccc2O1 returned MLL AF4-AF9 inh -5.3.
`CCCNC(=O)N1CC2(CN(C(=O)C3CCCC3)C2)c2c([nH]c3cc(OC)ccc23)[C@H]1CO` gave MLL AF4-AF9 inh -2.9.
`CC1(C(=O)NCc2ccc3c(c2)OCO3)CCN1C(=O)Cc1cccs1` (stereo not given) gave MLL AF4-AF9 inh -0.5.
C[C@@H]1CN([C@@H](C)CO)C(=O)c2cccc(NC(=O)CCCCCC(=O)Nc3ccccc3N)c2O[C@H]1CN(C)Cc1ccncc1 was read as MLL AF4-AF9 inh -1.6.
`CO[C@H]1CN(C)C(=O)c2cc(NS(=O)(=O)CC(F)(F)F)ccc2OC[C@H](C)N(C)C[C@H]1C` gave MLL AF4-AF9 inh 0.8.
For Cc1noc(C)c1S(=O)(=O)Nc1ccc2c(c1)CC(=O)N([C@H](C)CO)C[C@@H](C)[C@@H](CN(C)C(=O)Nc1ccccc1)O2 the results were MLL AF4-AF9 inh 0.8.
C[C@@H]1CN([C@H](C)CO)C(=O)c2cc(NS(=O)(=O)c3ccc(Cl)cc3)ccc2O[C@@H](C)CCCCO[C@@H]1CN(C)Cc1ccc(Cl)c(Cl)c1 was read as MLL AF4-AF9 inh -1.1.
CCCCNC(=O)c1ccc2nc(CC)c(N(C)Cc3ccc(OC)cc3)n2c1 was read as MLL AF4-AF9 inh -0.6.

The final four entries of the part before are carried over, then new ones follow:
`CO[C@H]1CN(C)C(=O)c2cc(NS(=O)(=O)CC(F)(F)F)ccc2OC[C@H](C)N(C)C[C@H]1C` gave MLL AF4-AF9 inh 0.8.
For Cc1noc(C)c1S(=O)(=O)Nc1ccc2c(c1)CC(=O)N([C@H](C)CO)C[C@@H](C)[C@@H](CN(C)C(=O)Nc1ccccc1)O2 the results were MLL AF4-AF9 inh 0.8.
C[C@@H]1CN([C@H](C)CO)C(=O)c2cc(NS(=O)(=O)c3ccc(Cl)cc3)ccc2O[C@@H](C)CCCCO[C@@H]1CN(C)Cc1ccc(Cl)c(Cl)c1 was read as MLL AF4-AF9 inh -1.1.
CCCCNC(=O)c1ccc2nc(CC)c(N(C)Cc3ccc(OC)cc3)n2c1 was read as MLL AF4-AF9 inh -0.6.
For c1ccc(COc2ccc(-c3cc4nc(NCCCn5ccnc5)ccn4n3)cc2)cc1 the results were MLL AF4-AF9 inh -1.2.
Screening CCC(c1nc2ccccc2[nH]1)n1c(-c2cnccn2)nc2ccccc21 (stereo not given) returned MLL AF4-AF9 inh 0.3.
Screening CO[C@H]1CN(C)C(=O)c2cc(NC(=O)C3CCC3)ccc2OC[C@@H](C)N(CC2CCCCC2)C[C@@H]1C returned MLL AF4-AF9 inh 2.6.
COc1ccc(NC(=O)Nc2ccc3c(c2)CC(=O)N([C@@H](C)CO)C[C@H](C)[C@H](CN(C)Cc2ccc(C(=O)Nc4ccccc4N)cc2)O3)cc1 was read as MLL AF4-AF9 inh -1.7.
COc1cc(C(O)c2nc(/C=C/c3ccc(C(F)(F)F)cc3)cs2)ccc1F (stereo not given) was read as MLL AF4-AF9 inh 2.6.
`CCCCN1CCS(=O)(=O)N(Cc2ccccc2Br)CC(C(=O)OC)C1` (stereo not given) gave MLL AF4-AF9 inh 0.0.
`CCN1CC(=O)N2[C@H](CO)[C@H](c3ccc(Br)cc3)[C@@H]2C1` gave MLL AF4-AF9 inh 4.7.
`C[C@H](O)C#Cc1ccc([C@H]2[C@@H](CO)N3CCCCN(CC4CCOCC4)C[C@@H]23)cc1` gave MLL AF4-AF9 inh 3.1.
Screening O=C(C[C@H]1C=C[C@@H](NC(=O)c2cccc(F)c2)[C@H](CO)O1)NCc1ccccc1 returned MLL AF4-AF9 inh 0.1.
`O=C(NCC[C@@H]1CC[C@@H](NS(=O)(=O)c2cccc(F)c2)[C@H](CO)O1)C1CCOCC1` gave MLL AF4-AF9 inh -2.8.
Screening C[C@@H]1CCCCO[C@H](CN(C)S(=O)(=O)c2cn(C)cn2)[C@H](C)CN([C@@H](C)CO)C(=O)c2cc(NC(=O)Nc3cccc4ccccc34)ccc2O1 returned MLL AF4-AF9 inh 3.4.
For C[C@@H]1CCCCO[C@H](CN(C)C(=O)Nc2ccc3c(c2)OCO3)[C@@H](C)CN([C@H](C)CO)C(=O)c2cc(NC(=O)Nc3ccccc3)ccc2O1 the results were MLL AF4-AF9 inh 8.3.
Screening CCOC(=O)N1CCN(C(=O)C[C@@H]2C[C@@]3(C(=O)OCC)CCCC=C3N(CCC3=CCCCC3)C2=O)CC1 returned MLL AF4-AF9 inh 2.6.
O=C(N[C@H]1C=C[C@H](CC(=O)N2CCN(c3ccccc3)CC2)O[C@@H]1CO)c1ccncc1 was read as MLL AF4-AF9 inh -17.
For O=C(C1CCCC1)N1CC2(C1)[C@H](c1ccccc1)[C@H](CO)N2CC1CC1 the results were MLL AF4-AF9 inh -0.1.
C/C=C/c1ccc2c(c1)O[C@@H](CN(C)C(C)=O)[C@@H](C)CN([C@@H](C)CO)S2(=O)=O was read as MLL AF4-AF9 inh -2.6.
O=C(Cc1ccccc1)N1CC[C@@H]2[C@H](CO)Nc3ccc(-c4ccccc4)cc3[C@@H]21 was read as MLL AF4-AF9 inh 0.3.
`C[C@@H]1CN([C@H](C)CO)C(=O)c2cc(C#Cc3ccccc3)cnc2O[C@@H]1CN(C)C(=O)CN(C)C` gave MLL AF4-AF9 inh 8.0.
CC(=O)N(C)C[C@H]1Oc2cc(-c3ccc(C)cc3)ccc2S(=O)(=O)N([C@H](C)CO)C[C@H]1C was read as MLL AF4-AF9 inh -4.3.
Screening C[C@@H]1CN([C@H](C)CO)C(=O)c2cc(NS(C)(=O)=O)ccc2O[C@@H](C)CCCCO[C@@H]1CN(C)Cc1ccc(Cl)c(Cl)c1 returned MLL AF4-AF9 inh 2.3.
O=C(N[C@H]1CC[C@H](CCNS(=O)(=O)c2ccc(F)cc2)O[C@@H]1CO)c1cccc(F)c1 was read as MLL AF4-AF9 inh -2.2.
Screening C[C@H]1CN([C@@H](C)CO)C(=O)c2cc(NS(=O)(=O)c3ccc(F)cc3)ccc2O[C@@H]1CN(C)Cc1ccc(C(F)(F)F)cc1 returned MLL AF4-AF9 inh -2.5.
Screening CO[C@@H]1CN(C)C(=O)c2ccc(NC(=O)c3ccccc3F)cc2OC[C@H](C)NC[C@H]1C returned MLL AF4-AF9 inh -1.6.
Screening O=C(Cc1ccccc1)N1CC(=O)N2[C@H](CO)[C@@H](c3ccc(Br)cc3)[C@H]2C1 returned MLL AF4-AF9 inh -2.2.
`CNC[C@@H]1Oc2ccc(NC(=O)c3ccncc3)cc2CC(=O)N([C@H](C)CO)C[C@@H]1C` gave MLL AF4-AF9 inh -2.2.
`COCC(=O)Nc1ccc2c(c1)C(=O)N(C)C[C@H](OC)[C@@H](C)CN(Cc1cccnc1)[C@H](C)CO2` gave MLL AF4-AF9 inh -0.1.
`CN(C)CCCCCCNC(=O)[C@H]1C[C@H]2C(=O)N3CCC[C@H]3C(=O)N2[C@H]1c1cccc(OCCO)c1` gave MLL AF4-AF9 inh -2.0.
CCCNC(=O)C[C@H]1CC[C@@H]2[C@@H](COc3ccc(NC(=O)c4cccc(Cl)c4)cc3C(=O)N2C)O1 was read as MLL AF4-AF9 inh -1.5.
`COc1ccc(S(=O)(=O)Nc2ccc3c(c2)C(=O)N([C@H](C)CO)C[C@@H](C)[C@@H](CN(C)C(=O)Nc2c(C)noc2C)O3)cc1` gave MLL AF4-AF9 inh -2.1.
Screening COCC(=O)N1[C@H](C#N)[C@H](c2ccccc2C2=CCCC2)[C@@H]1CO returned MLL AF4-AF9 inh -5.6.
`COc1ccccc1-c1ccc2c(c1)O[C@H](CN(C)S(=O)(=O)c1ccccc1)[C@H](C)CN([C@H](C)CO)S2(=O)=O` gave MLL AF4-AF9 inh 0.4.
C[C@@H]1CN([C@@H](C)CO)C(=O)c2c(c3ccccc3n2C)-c2ccccc2CO[C@@H]1CN(C)S(=O)(=O)c1ccccc1F was read as MLL AF4-AF9 inh 6.5.

Among those listed so far, three have two or more sulfur atoms.
Screening C[C@H]1CN([C@@H](C)CO)C(=O)c2cc(NS(=O)(=O)c3cccs3)ccc2O[C@H]1CN(C)Cc1ccc(Oc2ccccc2)cc1 returned MLL AF4-AF9 inh 4.8.
Screening C[C@@H]1CN([C@@H](C)CO)C(=O)c2cccc(NS(=O)(=O)c3ccc(F)cc3)c2O[C@@H]1CN(C)S(=O)(=O)c1cn(C)cn1 returned MLL AF4-AF9 inh -0.8.
`COc1ccccc1-c1ccc2c(c1)O[C@H](CN(C)S(=O)(=O)c1ccccc1)[C@H](C)CN([C@H](C)CO)S2(=O)=O` gave MLL AF4-AF9 inh 0.4.
